# miR-21 FLuc: miR-21 reporter, rising signal. Potency, µM (doses to about 38.3 µM), for inactives: at the top dose reporter change, positive = more light. HeLa miR-21 FLuc reporter, luciferase, 48 h. 340,000 tested, under 10 active. AID 2288; active = well fitted rising curve with a large enough effect; inconclusive = small, poorly fitted or top-dose-only effect; inactive = no such curve, though single readings can be large or run the other way;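 note: % of control where 0% means no effect; miR-21 action dims this reporter so a rising signal means less miR-21 action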
#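 HeLa cells stably expressing CMV-driven firefly luciferase with a downstream miR-21 binding sequence, endogenously expressing miR-21, were treated with titrations (up to about 40uM final) for 48 hours at 37 degree Celsius. Luciferase luminescence was read after lysis.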
# * hit, by the source's call; u = inconclusive.
miR-21 FLuc,Compound
0.0%,CCc1ccc(CNC(=O)CCc2c(C)nn(-c3ccc(N4CCCC4)nn3)c2C)cc1
-3.2%,Cc1ccc(OCC(=O)Nc2ccc3nc(SCC(=O)N4CCOCC4)sc3c2)cc1C
1.3%,CCc1ccccc1NC(=O)Cn1c(=O)n(Cc2ccco2)c(=O)c2ccccc21
6.4%,Cc1cccc(NC(=O)Cn2c(C(F)(F)F)nc3ccccc32)c1C
3.3%,Cc1ccc(S(=O)(=O)N2CCC(N3CCN(Cc4ccccc4)C(=O)C3=O)CC2)cc1C
1.5%,CCc1ccccc1NC(=O)c1cc(S(=O)(=O)N2CCCC2)cn1C
-4.8%,COc1ccc(-c2ccc(NS(=O)(=O)c3cccc(C)c3)cc2)nn1
11.6%,COc1ccc(Cn2c(C(=O)O)c(CNCc3ccc(SC)cc3)c3ccc(OC)cc32)cc1
2.6%,CCN(c1ncnc2c1c(-c1ccccc1)cn2-c1ccccc1)C1CCCCC1
2.0%,COc1cc(NC(=O)Cn2ncc3c(=O)oc4ccccc4c32)cc(OC)c1OC
-8.5%,COC(=O)c1c(NC(=O)COc2ccccc2Cl)sc2c1CCC(C(C)(C)C)C2 (stereo not given)
22.2%,CCOC(=O)c1c(-c2ccccc2)oc2ccc(NS(=O)(=O)c3ccc(C(C)C)cc3)cc12
2.5%,CCOc1ccc(NC(=O)Cn2c(=O)n(CCCC(=O)NCc3ccc4c(c3)OCO4)c(=O)c3ccccc32)cc1
-5.9%,CN(C)S(=O)(=O)c1ccc2c(c1)N(CC(=O)NCc1ccc(F)cc1)C(=O)CS2
-28.9%,COc1cc(CN(C(=O)COc2ccc(C)cc2)c2ccccn2)cc(OC)c1OC
-24.4%,CCCN1CCN(CCCNC(=O)c2cc3c(=O)n(CC)c4ccccc4c3s2)CC1
3.8%,CCn1c(=O)c2sccc2n2c(CCCC(=O)N3CCN(c4cccc(Cl)c4)CC3)nnc12
10.2%,CCN1CCN(C(=O)Cn2ncc3c4ccccc4n(Cc4ccccc4F)c3c2=O)CC1
-2.5%,Cc1nc(-n2nc(C)c(Cc3ccc4c(c3)OCO4)c2C)sc1C(=O)Nc1ccc(Cl)cc1
-1.9%,CC(C)c1ccc(NC(=O)CN2C(=O)c3cccc4cccc2c34)cc1
-9.6%,COc1cc(NC(=O)N(Cc2ccco2)C2CCN(C(C)=O)CC2)cc(OC)c1OC
0.4%,Cc1ccc(-n2ncc(C(=O)NCCCN3CCN(C)CC3)c2C2CCN(C(=O)OC(C)(C)C)CC2)c(C)c1
4.0%,COc1cc(OC)c(NC(=O)CC(C)S(=O)(=O)c2ccc3c(c2)NC(=O)CO3)cc1Cl (stereo not given)
-5.0%,COc1cc(NC(=O)c2noc3c2CSc2ccccc2-3)cc(OC)c1OC
-5.6%,CCOc1cc(C2C(C(=O)Nc3ccc(OC)cc3)=C(C)Nc3nc(SC)nn32)ccc1O (stereo not given)
-0.1%,Cc1ccc2c(-c3csc(N)n3)c[nH]c2c1
8.6%,CC1Cc2cc(S(=O)(=O)CCC(=O)Nc3cccc(F)c3)ccc2N1C(=O)C1CC1 (stereo not given)
14.3%,CC(CCc1ccccc1)NC(=O)CSc1n[nH]c(-c2ccccc2Cl)n1 (stereo not given)
-1.6%,Cn1c(=O)n(C)c2cc(N3CCCC3)c(NC(=O)Nc3ccccc3)cc21
20.7%,CC(NC(=O)CN(c1ccc(Cl)cc1Cl)S(=O)(=O)c1ccccc1)c1ccccc1 (stereo not given)
-1.3%,Cn1c(Oc2ccc(Cl)cc2)nc2c1c(=O)n(Cc1ccc(F)cc1)c(=O)n2C
2.6%,CC(C)c1noc(-c2ccccc2OCC(=O)Nc2cccc([N+](=O)[O-])c2)n1
-6.2%,O=C(CC1N=C2c3ccccc3N=C(SCc3ccc(Cl)cc3)N2C1=O)NC1CCCCC1 (stereo not given)
0.4%,CSc1ccc(CCNC(=O)c2ccc3c(Cl)c4c(nc3c2)CCCC4)cc1
-4.6%,CCCC12CN3CC(CCC)(CN(C1)C3c1ccc(OC(C)C)cc1)C2=O (stereo not given)
11.9%,CC(=O)Nc1nonc1-c1nnc(SCC(=O)Nc2cc(Cl)ccc2C)n1C
22.4%,COc1ccc(NC(=O)CSc2nc(-c3cc(OC)c(OC)c(OC)c3)[nH]c2-c2ccc(F)cc2)cc1
0.4%,Cc1cccc(OCCCC(=O)Nc2sc3c(c2C(N)=O)CCC(C)C3)c1 (stereo not given)
2.5%,O=C(O)c1cccc(NC(=O)c2cccc(S(=O)(=O)Nc3cccc(F)c3)c2)c1
-1.5%,Cc1ccc(N2CCN(C(=O)c3cccn4c(=O)c5ccc(Cl)cc5nc34)CC2C)cc1 (stereo not given)
-2.8%,CCOC(=O)c1c(C)oc2nc(C)nc(NCCc3ccc(S(N)(=O)=O)cc3)c12
12.3%,CC1=C(C(=O)Nc2cccc(Cl)c2C)C2(CCCCCC2)OC1=O
-5.4%,O=c1oc2cc(O)ccc2cc1-c1nc(-c2ccc(Cl)c(Cl)c2)cs1
-2.5%,COc1ccc(-c2noc(CN3CCN(c4ccccc4OC)CC3)n2)cc1OC
-13.5%,CC1CCN(C(=O)c2ccccc2NC(=O)c2nsc3ccccc23)CC1
-0.3%,O=C(c1ccc(F)cc1)N1CCN(CCc2ccncc2)CC1
u,COc1ccc(S(=O)(=O)N(CC(=O)Nc2cccc(C(F)(F)F)c2)c2ccc(C)cc2)cc1
-4.9%,COc1ccc2c(CNCCc3cccs3)c(C(=O)O)n(Cc3ccccc3)c2c1
-3.6%,Cc1ccc(NC(=O)C2CCCN(S(=O)(=O)c3cccs3)C2)c(C)c1 (stereo not given)
-2.7%,O=C(CSc1nc2c(c(=O)[nH]1)CN(Cc1ccc3c(c1)OCO3)CC2)Nc1cccc(Cl)c1
-5.9%,CCCNC(=O)c1ccc(-c2nc(CS(=O)(=O)c3ccc(C)cc3)c(C)o2)cc1
10.8%,CCOc1ccccc1NC(=O)c1ccc(F)c(S(=O)(=O)N2CCN(c3ccc(F)cc3)CC2)c1
15.7%,Cc1ccc(Cl)cc1-n1ncc2c(NC3CCCCC3)ncnc21
7.6%,Cc1ccc(C2CC(=O)Nc3cc4c(cc32)OCCO4)cc1 (stereo not given)
-34.6%,COc1ccc(C)cc1NC(=O)c1nnn(CC(=O)Nc2c(C)cccc2C)c1N
-1.8%,COc1ccccc1CNC(=O)CCS(=O)(=O)c1ccc2c(c1)oc(=O)n2C
0.3%,CCOc1ccc(NC(=O)Cn2c(=O)n(CC(=O)NCCc3ccccc3)c(=O)c3sccc32)cc1
-7.6%,O=C(COc1ccc(F)cc1)Nc1ccc2nc(SCC(=O)N3CCCC3)sc2c1
-13.2%,Cc1ccc(NC(=O)Nc2ccccc2OCc2cc(=O)n3ccccc3n2)c(Cl)c1
-0.6%,CCOC(=O)N1CCc2c(sc3c2c(=O)n(CCc2ccccc2)c(=O)n3CC(=O)Nc2ccc(C)cc2)C1

# In a second layout: 3 of the compounds above
Molecule	miR-21 FLuc
Cc1ccc(NC(=O)C2CCCN(S(=O)(=O)c3cccs3)C2)c(C)c1 (stereo not given)	-3.6%
O=C(CSc1nc2c(c(=O)[nH]1)CN(Cc1ccc3c(c1)OCO3)CC2)Nc1cccc(Cl)c1	-2.7%
CCCNC(=O)c1ccc(-c2nc(CS(=O)(=O)c3ccc(C)cc3)c(C)o2)cc1	-5.9%

# The list goes on.
miR-21 FLuc,Compound
-19.1%,COc1ccc2nc(N(Cc3cccnc3)C(=O)COc3ccccc3)sc2c1
-13.6%,COc1ccc2ncc3c(-c4ccc(C)c(C)c4)nn(CC(=O)NC4CCCC4)c3c2c1
12.7%,CCc1ccc2oc(-c3ccc(NC(=O)c4cccc(Cl)c4Cl)cc3)nc2c1
0.2%,Cc1ccc(Cl)cc1NC(=O)Cn1nc2c(cc1=O)CC(C)CC2 (stereo not given)
13.8%,Cc1ccc(NS(=O)(=O)c2ccc3c(c2)N(C)C(=O)CC(=O)N3C)cc1Cl
0.7%,CCOC(=O)c1ccc(N2C(=O)c3n[nH]c(-c4cccs4)c3C2c2ccc(C(C)(C)C)cc2)cc1 (stereo not given)
19.2%,CC(C)c1nn2c(=O)cc(COC(=O)c3ccc(NC(=O)c4ccccc4Cl)cc3)nc2s1
-3.0%,CCOc1ccc(C(c2c(O)cc(C)n(Cc3ccco3)c2=O)N2CCN(C)CC2)cc1 (stereo not given)
-4.0%,CCCC(C(=O)Nc1cc(C)c(Cl)cc1OC)N1Cc2ccccc2C1=O (stereo not given)
-11.5%,Cc1ccc(-c2noc(-c3ccc(N4CCC(C)CC4)c([N+](=O)[O-])c3)n2)cc1
-8.0%,COc1cc(C(c2c(C)[nH][nH]c2=O)c2c(C)[nH][nH]c2=O)ccc1OC(=O)c1ccccc1OC
4.1%,Cc1ccc(NC(=O)C2CCCN(S(=O)(=O)c3cccc4cccnc34)C2)c(Br)c1 (stereo not given)
-0.8%,CC1CCC(C(=O)NC(C(=O)OCC(=O)c2ccc(Br)cc2)C(C)C)CC1 (stereo not given)
-7.9%,Cc1ccc(-c2nc(-c3cc4cccc(OCc5cccc(F)c5)c4oc3=O)no2)cc1
3.5%,CCOc1ccc(C(c2c(O)cc(C)n(CCOC)c2=O)N2CCC(C)CC2)cc1 (stereo not given)

# 4 compounds out of the list, ordered by number of heavy atoms, rising.
miR-21 FLuc,Compound
0.2%,Cc1ccc(Cl)cc1NC(=O)Cn1nc2c(cc1=O)CC(C)CC2 (stereo not given)
-11.5%,Cc1ccc(-c2noc(-c3ccc(N4CCC(C)CC4)c([N+](=O)[O-])c3)n2)cc1
3.5%,CCOc1ccc(C(c2c(O)cc(C)n(CCOC)c2=O)N2CCC(C)CC2)cc1 (stereo not given)
-3.0%,CCOc1ccc(C(c2c(O)cc(C)n(Cc3ccco3)c2=O)N2CCN(C)CC2)cc1 (stereo not given)

# More structures follow.
miR-21 FLuc,Compound
-23.4%,COc1ccc(C(=O)Nc2ccc(-n3nncc3-c3ccc(OC)c(OC)c3)cc2)cc1
-6.8%,CC(C)C(=O)Nc1cccc(NC2=NS(=O)(=O)c3ccccc32)c1
-44.9%,COCc1nc2ccccc2n1Cc1ccc(C(C)(C)C)cc1
17.7%,Nc1cc(=O)nc(SCC(=O)Nc2cccc(Cl)c2)n1CCc1ccccc1
-8.3%,CCOC(=O)c1ccccc1NC(=O)c1sc2nc(-c3ccc(F)cc3)cn2c1C
2.3%,Cc1nc(N2CCCC2)c2c(C(=O)Nc3cccc(C)c3C)c(C)oc2n1
1.0%,COc1ccc(Cl)cc1NC(=O)c1c(NCc2cccs2)sc2c1CCC(C)C2 (stereo not given)
u,Cc1cccc(Cc2c(C)nc3nc(SCC(=O)NCc4ccc(F)cc4)nn3c2C)c1
9.0%,CCc1cccc(NC(=O)c2cnc(N3CCOCC3)c3ccccc23)c1
10.1%,COc1ccc(OC)c(CCNC(=O)c2cc3c(=O)n(C)c4ccccc4c3n2C)c1
-2.4%,COc1ccc(CCNC(=O)c2ccc3c(c2)N(Cc2ccccc2F)C(=O)c2ccccc2S3=O)cc1OC (stereo not given)
-15.6%,COc1ccc(NC(=O)c2sc3nc4n(c(=O)c3c2C)CCC4)c(OC)c1
-2.5%,Cc1ccccc1-c1nc(CS(=O)(=O)CC(=O)NCc2cccc(Cl)c2)c(C)o1
7.7%,COC(=O)c1cc2oc(C)cc2n1Cc1ccccc1Cl
-1.8%,CCN(CCCNC(=O)Cn1ncc2c3ccccc3n(C)c2c1=O)c1cccc(C)c1
-14.6%,Cc1cc(=O)n2nc(N3CCC(C(=O)Nc4c(C)cccc4C)CC3)sc2n1
0.8%,COc1ccc(C)cc1NC(=O)Cn1cc(S(=O)(=O)N2CCC(C)CC2)c2ccccc2c1=O
23.8%,Cc1oc(-c2ccccc2F)nc1CSCC(=O)N1CCN(c2ccccc2)CC1
-2.1%,CCOC(=O)c1c(C)[nH]c(C)c1S(=O)(=O)N1CCC(C(=O)N2CCN(c3ccc(F)cc3)CC2)CC1
-3.2%,COc1ccc(Cl)cc1NC(=O)Cn1nnc2sc(-c3ccccc3)cc2c1=O

# Grouped by structure: the entries above with a COOH group.
miR-21 FLuc,Compound
11.6%,COc1ccc(Cn2c(C(=O)O)c(CNCc3ccc(SC)cc3)c3ccc(OC)cc32)cc1
2.5%,O=C(O)c1cccc(NC(=O)c2cccc(S(=O)(=O)Nc3cccc(F)c3)c2)c1
-4.9%,COc1ccc2c(CNCCc3cccs3)c(C(=O)O)n(Cc3ccccc3)c2c1

# Gathered by group: the entries above containing an NH in an aromatic ring.
miR-21 FLuc,Compound
-0.1%,Cc1ccc2c(-c3csc(N)n3)c[nH]c2c1
14.3%,CC(CCc1ccccc1)NC(=O)CSc1n[nH]c(-c2ccccc2Cl)n1 (stereo not given)
22.4%,COc1ccc(NC(=O)CSc2nc(-c3cc(OC)c(OC)c(OC)c3)[nH]c2-c2ccc(F)cc2)cc1
-2.7%,O=C(CSc1nc2c(c(=O)[nH]1)CN(Cc1ccc3c(c1)OCO3)CC2)Nc1cccc(Cl)c1
0.7%,CCOC(=O)c1ccc(N2C(=O)c3n[nH]c(-c4cccs4)c3C2c2ccc(C(C)(C)C)cc2)cc1 (stereo not given)
-8.0%,COc1cc(C(c2c(C)[nH][nH]c2=O)c2c(C)[nH][nH]c2=O)ccc1OC(=O)c1ccccc1OC
-2.1%,CCOC(=O)c1c(C)[nH]c(C)c1S(=O)(=O)N1CCC(C(=O)N2CCN(c3ccc(F)cc3)CC2)CC1

# The list is partial, so the mix of outcomes need not match the whole.
